# HCMV UL50-53 inh: inhibitors of HCMV UL50-UL53 nuclear egress complex interaction; actives 0.15% (n = 190,000); inhibition, % (no concentration beside the values); HTRF UL50-UL53 interaction, normalized percent inhibition;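 active = both replicates at 50% or more, plus weaker picks with an unusually low signal ratio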;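 note: stock transfer was 100 nL into about 20 µL; 0% = negative control wells and 100% = wells with untagged competitor protein; inactives centre near -12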
# GIV Gai3 FP: inhibitors of GIV GBA-motif binding to rat Galpha-i3; P08753; Galpha-i3/FITC-GIV peptide fluorescence polarization, 90 min; active compounds read low; scaled: aluminum fluoride 0%, vehicle 100%; percent of control (FP), % (test concentration not listed); AID 1224905; actives 0.42% (n = 210,000);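 active = replicate mean at 85% of control or lower, very high polarization wells dropped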;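 note: lower values mean more displacement of the GIV peptide from Galpha-i3; wells of about 15 µL received 100 nL stock; the first replicate is given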
# Target sequence (P08753 whole entry, looked up): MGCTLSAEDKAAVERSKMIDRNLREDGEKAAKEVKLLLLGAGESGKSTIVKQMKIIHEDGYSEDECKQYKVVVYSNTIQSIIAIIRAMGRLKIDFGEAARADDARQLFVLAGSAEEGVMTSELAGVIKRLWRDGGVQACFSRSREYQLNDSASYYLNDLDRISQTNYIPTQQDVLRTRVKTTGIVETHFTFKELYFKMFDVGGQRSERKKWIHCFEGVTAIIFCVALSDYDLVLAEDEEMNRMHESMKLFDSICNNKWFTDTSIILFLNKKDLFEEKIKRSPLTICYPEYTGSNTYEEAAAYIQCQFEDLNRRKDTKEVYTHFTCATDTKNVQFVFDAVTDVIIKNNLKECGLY
# Sa growth 42C: inhibitors of Staphylococcus aureus growth at 42 °C | S. aureus RN4220 growth, OD600, 20 h; active compounds read low | relative growth, % (no concentration beside the values) | actives 0.53% (n = 170,000) | AID 720641;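 active = growth at 42 °C up to 50% and 20 or more points under that at 30 °C, or under 10% at both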;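 note: 300 nL library stock went into each well; scaled to the means of positive and negative controls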
# Sa growth 42C second temp: further read-out of Sa growth 42C, marked with its call; relative growth, %; measured here: growth at 30 °C;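 optical density after 20 h as mean of two plates; 100% = untreated growth and lower means inhibition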
# * hit, by the source's call; . = not tested or not shown; & = joins results of further samples.
# Screens in order: HCMV UL50-53 inh	GIV Gai3 FP	Sa growth 42C	Sa growth 42C second temp
COc1ccc(CCC(=O)NCCc2csc(-c3cccc(F)c3)n2)cc1
 : .	103.7	82.4	91.1
CC(C)NC(=O)N1CCCC(c2cccc(C(=O)NCc3ccc(Cl)cc3)c2)C1 (stereo unspecified)
 : -12.0	106.1	.	.
Oc1cccc(Nc2cc(-c3ccccc3)ncn2)c1
 : -37.8&-11.5	106.4&102.7	97.5	82.0
COc1ccc(-c2noc(COC(=O)CSc3nc4ccccc4o3)n2)c(OC)c1
 : -12.1	.	96.0	95.8
Cc1ccc(OCCNC(=O)Cc2ccsc2)cc1
 : -8.5	.	95.3	93.9
CCSc1nn2c(=O)c(C(C)(C)C)nnc2s1
 : -4.5	.	96.5	98.5
CN1C(=O)c2ccccc2Sc2ccc(NC(=O)NCc3ccco3)cc21
 : -26.3	106.2	91.6	83.0
Cc1ccc(SC(C)C(=O)Nc2ncn[nH]2)cc1 (stereo unspecified)
 : -10.3	101.0	113.5	86.1
CCOc1ccc(NC(=O)C(C#N)=C2CCCCCC2)cc1
 : -9.2	.	112.5	74.1
O=C(Nc1ccc(F)cc1F)c1ccccc1C(F)(F)F
 : 3.0	.	118.9	89.6
O=C(NC1CCCCC1)C(c1ccco1)N(Cc1cccs1)C(=O)C(F)(F)F (stereo unspecified)
 : -11.0	101.7	107.2	98.9
O=C(O)C1=C(C(=O)Nc2ccccc2)SCCS1
 : -24.3	98.5	100.6	76.6
NS(=O)(=O)c1ccc(CCNCc2cccs2)cc1
 : -3.2	98.0	99.2	95.3
CCn1c(=O)c2c3c(sc2n2c(=S)[nH]nc12)CCCC3
 : -12.0	107.7	89.3	76.8
CCc1nn(CC(=O)NC2CCN(Cc3ccccc3)CC2)c(=O)c2cc3sccc3n12
 : -11.5	97.5	99.6	89.7
O=C(CSc1ccc2c(c1)OCCO2)NC(=O)NCc1ccco1
 : -21.6	.	99.7	89.8
CCc1nn(CCCC(=O)N2CCc3ccccc3C2)c(=O)c2cc3occc3n12
 : -15.9	99.6	75.2	51.7
Cc1ccc(Cn2c(=O)c3ccccc3n3c(SCc4nc5ccc(Cl)cc5n4CCO)nnc23)cc1
 : -1.0	.	84.6	88.3
Cc1c(C(=O)NCCCN2CCOCC2)cc(C(C)(C)C)n1-c1ccccc1
 : -30.0	108.6	106.0	90.0
O=C(CCCc1nc2ccccc2s1)OCc1nnc(-c2cccs2)o1
 : 11.0	.	110.2	100.8
N#Cc1c(C(F)(F)F)cc(-c2cccs2)nc1SCC(=O)c1ccccc1
 : -22.2	.	94.2	86.4
COc1cc(NC(=O)NC(C)c2c(-n3cccc3)sc3c2CCCC3)cc(OC)c1OC (stereo unspecified)
 : -21.7	100.7	103.8	93.3
O=C(Nc1nnc(S(=O)(=O)N2CCCc3ccccc32)s1)c1cccc(F)c1
 : -25.3	102.5	113.1	42.8
CCOC(=O)C1CCCN(C(=O)Cn2c(=O)cc(C)c3c(C)nn(C)c32)C1 (stereo unspecified)
 : .	99.8	96.8	91.3
COc1ccc(OCCCC(=O)N2CCN(S(=O)(=O)c3ccccc3C(F)(F)F)CC2)cc1
 : -15.5	.	90.3	84.7
C=CCn1c(=O)/c(=C/c2ccc3c(c2)OCO3)s/c1=C(/C#N)C(N)=O
 : -28.1	.	85.6	90.8
Cc1c(C(=S)Nc2ccccc2)sc2ccccc12
 : -39.9	101.8	86.4	83.6
COc1ccc(-c2nc(SCC(=O)Nc3ccc4c(c3)OCCO4)c(-c3ccccc3)[nH]2)cc1
 : -10.0	100.6	113.1	73.3
COc1ccccc1CNC(=O)C(C)n1c(=O)cc(C(F)(F)F)c2c(C)nn(C)c21 (stereo unspecified)
 : .	104.3	95.8	91.6
CCOCCCNC(=O)C1CCN(c2nn3cc(-c4ccc(F)cc4)nc3s2)CC1
 : .	102.7	102.1	69.7

# Following part.
# Screens in order: HCMV UL50-53 inh	GIV Gai3 FP	Sa growth 42C	Sa growth 42C second temp
C=CCn1c(SCCC(C)C)nc2sc3c(c2c1=O)CC(C)(C)OC3
 : -25.5	101.7	.	.
Cc1ccc(CNS(=O)(=O)c2ccccc2)n1C
 : 23.2	102.2	84.4	87.0
COc1cccc(-c2nc(SCN3C(=O)c4ccccc4C3=O)[nH]c(=O)c2C#N)c1
 : -30.2	102.3	110.9	90.6
COC(=O)CC1=CC(SCC(=O)c2cc(OC)ccc2OC)=Nc2ccccc2N1
 : -39.9	110.1	.	.
Cc1cc(C)cc(OCC(=O)N2CCC(c3nc4ccccc4s3)CC2)c1
 : -26.5	99.2	100.3	83.9
CC1=NN(c2ccccc2)C(=O)C1C(=O)c1ccc(F)cc1 (stereo unspecified)
 : -7.5	98.8	109.5	59.5
O=C(COc1ccc(Oc2ccccc2)cc1)NCc1cn2ccccc2n1
 : -35.6	.	115.3	81.8
O=C(N/N=C/c1cccc(Br)c1)c1ccccc1O
 : -5.2	.	119.5	92.4
CCCCn1c(-c2ccc(S(=O)(=O)N3CCOCC3)cc2)csc1=Nc1ccccc1
 : -38.5	99.5	101.2	88.5
OC(CNc1nc2ccccc2s1)c1ccccc1 (stereo unspecified)
 : -0.5	.	109.4	96.5
CC(=O)c1ccc(-n2c(CCC(=O)O)ccc2-c2cccs2)cc1
 : -50.2	109.1	107.0	83.7
CC(=O)c1cccc(NC(=O)Cn2c(-c3cncs3)nc3ccccc32)c1
 : -54.8	109.8	93.1	82.5
C=CCc1cc(C(=O)N2CCCC2)ccc1O
 : -3.3	100.4	106.6	72.5
COCC(=O)/C=C1\Sc2ccccc2N1C
 : 5.2	107.3	101.4	100.5
COc1ccc(Cl)cc1NC(=O)Cn1c(=O)c2c(OC)ccnc2n(C)c1=O
 : 7.9	99.9	.	.
Cc1ccc(N2COc3ccc(C(C)(C)C)cc3C2)cc1
 : -33.6	103.7	63.8	45.1
Cc1noc(-c2ccc(Cl)cc2)c1NC(=O)NN1CCCCC1
 : -20.5	109.1	92.3	86.6
N#CCOc1ccc2cc(-c3nc4ccccc4s3)c(=O)oc2c1
 : 7.3	155.0	.	.
Cc1ccccc1NCC(=O)N1CCc2ccccc21
 : 5.9	.	111.5	97.3
Cc1cc(Nc2nc3ccccc3nc2Cl)n(-c2ccccc2)n1
 : 5.1	.	114.5	98.5
CCOc1ccc(C2Nc3ccccc3-c3nnc(SCc4ccccc4)nc3O2)cc1OC (stereo unspecified)
 : -27.6	91.6	101.8	92.5
COc1ccc(NC(=O)c2cccc3c2SCCC3=O)cc1OC
 : -18.1	96.6	.	.
COc1cccc(NC(=O)c2ccnc(C(C)(C)C)c2)c1
 : 3.0	104.1	95.1	98.8
COc1ccc(C(=O)/C=C\Nc2ccc(S(=O)(=O)N=C(N)N)cc2)cc1OC
 : -91.8	104.7	93.4	93.2
CNC(=O)c1cc(-c2ccc(OC)cc2)nc2ccccc12
 : -48.3	102.1	86.8	78.0
CCOC(=O)N1CCc2c(sc3c2c(=O)n(-c2ccc(CC)cc2)c(=O)n3C)C1
 : -19.7	104.8	111.0	86.6
Cc1nc2nc3c(c(N4CCN(c5cccc(Cl)c5)CC4)n2n1)CCCC3
 : -23.3	98.1	.	.
Cc1ccccc1NC(=O)CC1SC(N2CCCCC2)=NC1=O (stereo unspecified)
 : 6.3	.	102.1	96.4
Nc1c(-c2nnc(SCc3ccc(Cl)cc3)o2)cnn1-c1ccccc1
 : -201.6	97.3	92.5	86.6
CN(Cc1cccc(Cl)c1Cl)CC(O)COCc1ccccc1 (stereo unspecified)
 : -7.6	.	120.3	97.8

# Next section
SMILES | HCMV UL50-53 inh | GIV Gai3 FP | Sa growth 42C | Sa growth 42C second temp
O=C(NCC1(c2ccccc2)CCOCC1)c1ccco1 | -10.6 | 96.1 | 98.8 | 92.8
O=S(=O)(CC(O)COc1ccccc1)c1ccccn1 (stereo unspecified) | -7.6 | . | 87.5 | 83.8
COc1ccc(NC(=O)CSCC(=O)O)cc1 | 11.2 | 96.6 | 95.5 | 111.9
NC(=O)c1c(NC(=O)CN(CCO)c2ccccc2)sc2c1CCC2 | -34.2 | . | 91.3 | 75.3
O=C(N1CCOCC1)N1CCOCC1 | -20.4 | 93.3 | 113.0 | 96.2
O=S(=O)(c1ccc(-n2cnnn2)cc1)N1CCCCCCC1 | -8.1 | 102.5 | 102.2 | 91.1
CS(=O)(=O)N1CCC(C(=O)N2CCCCC2)CC1 | . | 101.3 | 113.9 | 87.3
Cc1cc2nc(-c3ccc(OCc4ccccc4C)cc3)cc(C(F)(F)F)n2n1 | -12.5 | 106.9 | 89.4 | 90.2
Cc1occc1-c1nnc2n1N=C(c1ccc(-c3cc(Cl)ccc3Cl)o1)CS2 | -5.1 | 101.2 | 93.3 | 77.5
Cc1ccc(-c2nc(S(=O)(=O)c3ccc(C)cc3)c(SCC(=O)c3ccccc3)o2)cc1 | -11.7 | 109.3 | 92.6 | 91.5
COc1cc(C(=O)N(Cc2ccco2)c2ccc(O)cc2)cc(OC)c1OC | -17.2 | 99.2 | 109.4 | 85.2
CCCCNc1ncnc2nc[nH]c12 | -30.9 | 104.5 | 89.4 | 78.3
COC(=O)CC1C(=O)NCCN1C(=O)CSc1nnc(-c2ccccc2)o1 (stereo unspecified) | -1.6 | . | 96.1 | 91.1
CCOc1cc(C(F)(F)F)cnc1C(=N)N | 0.8 | 107.3 | 96.7 | 104.4
O=C(Cn1c(=O)nc(-c2ccccc2)c2ccccc21)Nc1ccc2c(c1)OCO2 | -22.8 | 107.3 | . | .
COc1ccc(CNC(=O)C2CCN(C(=O)N3CCOc4ccc(Cl)cc43)CC2)cc1 | 6.4&7.1 | 107.6&103.2 | 84.5 | 87.6
O=c1[nH][nH]c(=O)n1CCCc1cc2cccc3ccc4cccc1c4c32 | -42.2 | 97.5 | 100.6 | 49.9
Cc1c(C(=O)NCc2cccc(F)c2)oc2c1-c1[nH]ncc1CC2 | -20.6 | 98.0 | 105.1 | 79.3
CC1CCN(c2ncccc2C(=O)NC2CCCCC2)CC1 | -1.3 | 100.4 | 98.8 | 75.8
COc1ccc(-n2c(-c3ccco3)nc3c(cnn3-c3ccccc3C)c2=O)cc1 | 14.1 | 101.8 | 89.6 | 106.6
CCCCNC(=O)c1c2c(nn1C)-c1ccccc1SC2 | -27.9 | 97.9 | . | .
O=C1NC(Cc2ccc(O)cc2)C(=O)N1C12CC3CC(CC(C3)C1)C2 (stereo unspecified) | -15.0 | 102.0 | 89.2 | 75.0
Cc1cc(C)n2nc(CNS(=O)(=O)c3ccc(Cl)cc3)nc2n1 | -3.3 | 110.6 | 105.7 | 93.6
C=C(C)Cn1nc(C)c(-c2cc(C(=O)O)[nH]n2)c1C | -29.0 | 101.9 | 91.0 | 85.5
O=C(O)c1ccc(N=NN2CCCCC2)cc1 | -52.9 | 100.6 | 100.9 | 99.1
COc1ccc(C(=O)Nc2nccs2)cc1S(=O)(=O)N(C)Cc1ccccc1 | -11.3 | . | 85.1 | 90.5
CC(=O)Nc1ccc(N=Cc2nc(-c3ccc(Br)cc3)oc2O)cc1 | -25.3 | 102.4 | . | .
COc1cc(=O)n(C)c2c(OCC(O)C(C)(C)O)cccc12 (stereo unspecified) | -31.1&-22.4 | 106.9 | 103.5 | 89.7

# Grouped by structure: the compounds so far with a thiophene ring, fused or not.
SMILES | HCMV UL50-53 inh | GIV Gai3 FP | Sa growth 42C | Sa growth 42C second temp
Cc1ccc(OCCNC(=O)Cc2ccsc2)cc1 | -8.5 | . | 95.3 | 93.9
O=C(NC1CCCCC1)C(c1ccco1)N(Cc1cccs1)C(=O)C(F)(F)F (stereo unspecified) | -11.0 | 101.7 | 107.2 | 98.9
NS(=O)(=O)c1ccc(CCNCc2cccs2)cc1 | -3.2 | 98.0 | 99.2 | 95.3
CCn1c(=O)c2c3c(sc2n2c(=S)[nH]nc12)CCCC3 | -12.0 | 107.7 | 89.3 | 76.8
CCc1nn(CC(=O)NC2CCN(Cc3ccccc3)CC2)c(=O)c2cc3sccc3n12 | -11.5 | 97.5 | 99.6 | 89.7
O=C(CCCc1nc2ccccc2s1)OCc1nnc(-c2cccs2)o1 | 11.0 | . | 110.2 | 100.8
N#Cc1c(C(F)(F)F)cc(-c2cccs2)nc1SCC(=O)c1ccccc1 | -22.2 | . | 94.2 | 86.4
COc1cc(NC(=O)NC(C)c2c(-n3cccc3)sc3c2CCCC3)cc(OC)c1OC (stereo unspecified) | -21.7 | 100.7 | 103.8 | 93.3
Cc1c(C(=S)Nc2ccccc2)sc2ccccc12 | -39.9 | 101.8 | 86.4 | 83.6
C=CCn1c(SCCC(C)C)nc2sc3c(c2c1=O)CC(C)(C)OC3 | -25.5 | 101.7 | . | .
CC(=O)c1ccc(-n2c(CCC(=O)O)ccc2-c2cccs2)cc1 | -50.2 | 109.1 | 107.0 | 83.7
CCOC(=O)N1CCc2c(sc3c2c(=O)n(-c2ccc(CC)cc2)c(=O)n3C)C1 | -19.7 | 104.8 | 111.0 | 86.6
NC(=O)c1c(NC(=O)CN(CCO)c2ccccc2)sc2c1CCC2 | -34.2 | . | 91.3 | 75.3

# Bioassay records (PubChem BioAssay)
